# NOMO-1 viab: STK33 inhibitor candidate reducing NOMO-1 cell viability. inhibition, % (concentration not given with the values). NOMO-1 AML viability, CellTiter-Glo luminescence, 72 h. 37,000 tested, 7.5% active. AID 2330;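 active = most replicates above 80%; inconclusive = exactly half above 80%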;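 also: wells of about 30 µL received 25 nL stock; 0% = median of vehicle wells and 100% = reference inhibitor level; the first replicate is given; inactives centre near 10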
# Numbers without * were called inactive; u = inconclusive. A portion of the library (hit frequency here may not be typical).
SMILES,NOMO-1 viab
CCc1cc(Cl)c(OC)c(C(=O)NC[C@@H]2CCCN2CC)c1O,16
O=C(CSc1nc2ccccc2[nH]1)Nc1ccccc1-c1ccccc1,0
C[C@H](CO)N1C[C@H](C)[C@H](CN(C)C(=O)NC2CCCCC2)Oc2ccc(N(C)C)cc2C1=O,-6
C[C@@H]1CN([C@@H](C)CO)C(=O)Cc2cc(NC(=O)Nc3cccc4ccccc34)ccc2O[C@@H]1CN(C)Cc1ccc2c(c1)OCO2,97*
O=C(c1ccc(Br)cc1)C(C(=O)N1CCCCC1)n1ccccc1=O (configuration not stated),10
COc1cc2c(cc1NC(=S)NCCc1ccc(OC)c(OC)c1)oc1ccccc12,7
CC(O)CC(=O)c1cc(O)ccc1O (configuration not stated),-1
COc1cc(NC(=O)COc2ccc(C(C)(C)C)cc2Br)c(OC)cc1Cl,14
C[C@H](CO)N1C[C@H](C)[C@@H](CN(C)Cc2ccccc2)Oc2ccc(NC(=O)CCN3CCOCC3)cc2C1=O,7
C[C@@H]1CN([C@@H](C)CO)C(=O)c2cccc(NC(=O)c3cnccn3)c2O[C@H]1CN(C)S(=O)(=O)c1ccccc1,-8
CC(=O)c1ccc(-n2c(CCC(=O)O)ccc2-c2ccc(F)cc2)cc1,-14
COc1ccc(NC(=O)N(C)C[C@@H]2Oc3c(NS(=O)(=O)c4ccc(OC)cc4)cccc3C(=O)N([C@@H](C)CO)C[C@@H]2C)cc1,-9
C[C@@H]1CN([C@H](C)CO)C(=O)Cc2cc(NC(=O)NC3CCCCC3)ccc2O[C@@H]1CN(C)S(=O)(=O)c1cn(C)cn1,13
C[C@H](CO)N1C[C@H](C)[C@@H](CN(C)Cc2ccc(Cl)c(Cl)c2)Oc2ccc(NC(=O)Cc3cn(C)c4ccccc34)cc2C1=O,61
C[C@@H]1CN([C@H](C)CO)C(=O)c2cc(NC(=O)NC3CCCCC3)ccc2O[C@@H]1CN(C)Cc1ccccc1,18
Clc1ccc(COc2ccccc2CNc2ncn[nH]2)c(Cl)c1,30
C[C@@H]1CN([C@@H](C)CO)C(=O)c2cccc(NC(=O)c3ccc(-c4nccs4)cc3)c2O[C@H]1CN(C)S(=O)(=O)c1cccs1,15
O=C1CC(C(=O)Nc2cccc(C(=O)O)c2)C(c2ccccc2)O1 (configuration not stated),2
C[C@H]1CN([C@@H](C)CO)C(=O)Cc2cc(NC(=O)Nc3ccc(F)cc3)ccc2O[C@H]1CN(C)Cc1ccc(Oc2ccccc2)cc1,65
C[C@H](CO)N1C[C@H](C)[C@H](CN(C)C(=O)NC2CCCCC2)Oc2ccc(NC(=O)Nc3ccc(F)cc3)cc2C1=O,6
COc1ccc(CN(C)C[C@@H]2Oc3c(NS(=O)(=O)c4ccc(F)cc4)cccc3C(=O)N([C@@H](C)CO)C[C@H]2C)cc1,-3
COc1ccc(-c2nnc3c4ccccc4c(C)nn23)cc1S(=O)(=O)N1CCN(C)CC1,3
C[C@@H]1CN([C@H](C)CO)C(=O)Cc2cc(NC(=O)Cc3ccccc3)ccc2O[C@@H]1CN(C)C(=O)Nc1ccccc1,15
C[C@@H]1CN([C@@H](C)CO)C(=O)c2cccc(NS(=O)(=O)c3cn(C)cn3)c2O[C@H]1CN(C)Cc1ccccc1,3

# 4 entries from above, with each value named.
O=C1CC(C(=O)Nc2cccc(C(=O)O)c2)C(c2ccccc2)O1 (configuration not stated)
  NOMO-1 viab: 2

C[C@H]1CN([C@@H](C)CO)C(=O)Cc2cc(NC(=O)Nc3ccc(F)cc3)ccc2O[C@H]1CN(C)Cc1ccc(Oc2ccccc2)cc1
  NOMO-1 viab: 65

C[C@H](CO)N1C[C@H](C)[C@H](CN(C)C(=O)NC2CCCCC2)Oc2ccc(NC(=O)Nc3ccc(F)cc3)cc2C1=O
  NOMO-1 viab: 6

COc1ccc(CN(C)C[C@@H]2Oc3c(NS(=O)(=O)c4ccc(F)cc4)cccc3C(=O)N([C@@H](C)CO)C[C@H]2C)cc1
  NOMO-1 viab: -3

# Random excerpt: four records from the list.
SMILES,NOMO-1 viab
C[C@@H]1CN([C@H](C)CO)C(=O)c2cc(NC(=O)NC3CCCCC3)ccc2O[C@@H]1CN(C)Cc1ccccc1,18
CCc1cc(Cl)c(OC)c(C(=O)NC[C@@H]2CCCN2CC)c1O,16
C[C@H](CO)N1C[C@H](C)[C@@H](CN(C)Cc2ccc(Cl)c(Cl)c2)Oc2ccc(NC(=O)Cc3cn(C)c4ccccc34)cc2C1=O,61
C[C@@H]1CN([C@@H](C)CO)C(=O)Cc2cc(NC(=O)Nc3cccc4ccccc34)ccc2O[C@@H]1CN(C)Cc1ccc2c(c1)OCO2,97*

# Following part
SMILES,NOMO-1 viab
CCOc1ccccc1NC(=O)c1ccsc1NC(=O)c1cc2ccccc2oc1=O,-14
Cc1ccc2cc3c(nc2c1)N(Cc1ccco1)CC3,62
C[C@@H]1CN([C@H](C)CO)C(=O)Cc2cc(N(C)C)ccc2O[C@@H]1CN(C)Cc1ccc(-c2ccccc2)cc1,35
COc1ccc(CN(C)C[C@H]2Oc3ccc(NC(=O)Nc4ccccc4)cc3CC(=O)N([C@@H](C)CO)C[C@H]2C)cc1,18
COc1cc2nc(CCN3C(=O)c4ccccc4C3=O)oc(=O)c2cc1OC,8
O=C(NCCCn1ccnc1)c1ccccc1I,-5
Cc1ccc(S(=O)(=O)Nc2ccc3c(c2)C(=O)N([C@H](C)CO)C[C@H](C)[C@@H](CN(C)S(=O)(=O)c2cn(C)cn2)O3)cc1,-16
O=C(c1c[nH]c2ccccc12)C(O)C(c1ccccc1)N1CCCCC1 (configuration not stated),5
COc1ccc(S(=O)(=O)N(C)CC(=O)Nc2cc(Cl)c(Cl)cc2Cl)cc1Cl,28
Cc1noc(C)c1NC(=O)N(C)C[C@H]1Oc2c(NC(=O)c3ccncc3)cccc2C(=O)N([C@H](C)CO)C[C@H]1C,7
C[C@H](CO)N1C[C@H](C)[C@H](CN(C)Cc2ccc(C(=O)Nc3ccccc3N)cc2)Oc2c(NS(C)(=O)=O)cccc2C1=O,52
N#CC(C#N)=C(Nc1ccc(Br)cc1)SCc1ccc(F)cc1,112*
COc1ccc(S(=O)(=O)Nc2ccc3c(c2)C(=O)N([C@@H](C)CO)C[C@@H](C)[C@H](CN(C)Cc2ccc(C(=O)O)cc2)O3)cc1,8
Cc1ccc(S(=O)(=O)N(C)C[C@@H]2Oc3c(NC(=O)c4ccncc4)cccc3C(=O)N([C@@H](C)CO)C[C@@H]2C)cc1,6
Cc1ccc(NC(=O)Cn2cnc3ccccc3c2=O)cc1C,7
COc1ccc(NC(=O)Nc2ccc3c(c2)CC(=O)N([C@@H](C)CO)C[C@H](C)[C@@H](CN(C)C(=O)Nc2ccc(F)cc2)O3)cc1,11
CCOC(=O)CNc1n[nH]c(=O)[nH]c1=O,24
C[C@@H]1CN([C@H](C)CO)C(=O)c2cc(NS(=O)(=O)c3ccc(Cl)cc3)ccc2O[C@@H]1CN(C)Cc1ccc(Cl)c(Cl)c1,90*
C[C@H](CO)N1C[C@H](C)[C@H](CN(C)Cc2ccc(C(F)(F)F)cc2)Oc2ccc(NC(=O)Cc3ccccc3)cc2CC1=O,65
C[C@H](CO)N1C[C@H](C)[C@H](CN(C)C(=O)Nc2ccc3c(c2)OCO3)Oc2ccc(NC(=O)Cn3cnnn3)cc2C1=O,19
C[C@@H]1CN([C@@H](C)CO)C(=O)c2cc(NC(=O)CCN3CCOCC3)ccc2O[C@H]1CN(C)Cc1ccc2c(c1)OCO2,1
COc1ccc(OC)c(NC(=O)CNC(=O)c2ccc(C(C)(C)C)cc2)c1,-8
COc1ccc(N(C(C)C(=O)Nc2ccc(I)cc2)S(C)(=O)=O)cc1 (configuration not stated),-7
CS(=O)(=O)N(CC(=O)Nc1ccc2c(c1)OCCO2)Cc1ccccc1,6
C[C@@H]1CN([C@@H](C)CO)C(=O)c2cccc(NC(=O)C3CCCCC3)c2O[C@H]1CN(C)Cc1ccncc1,12
CS(=O)(=O)N(CC(=O)Nc1cc(Cl)ccc1Cl)c1cccc([N+](=O)[O-])c1,-1
Cc1noc(C)c1NC(=O)Nc1ccc2c(c1)C(=O)N([C@H](C)CO)C[C@H](C)[C@H](CN(C)C(=O)NC(C)C)O2,10
O=C(CC1C(=O)NCCN1C(=O)c1ccc(F)cc1)OCc1ccccc1 (configuration not stated),-21
Cc1noc(C)c1NC(=O)N(C)C[C@@H]1Oc2ccc(NS(=O)(=O)c3cn(C)cn3)cc2C(=O)N([C@@H](C)CO)C[C@@H]1C,-3
C[C@@H]1CN([C@H](C)CO)C(=O)c2cccc(NC(=O)C3CCCCC3)c2O[C@@H]1CN(C)C(=O)Nc1ccc2c(c1)OCO2,16
CC(NS(=O)(=O)c1ccccc1)C(=O)Nc1ccc(F)c(Cl)c1 (configuration not stated),10
Cc1noc(C)c1S(=O)(=O)N(C)C[C@@H]1Oc2ccc(NS(=O)(=O)c3cccs3)cc2CC(=O)N([C@@H](C)CO)C[C@@H]1C,1
CNC[C@H]1Oc2c(NS(=O)(=O)c3ccc(OC)cc3)cccc2C(=O)N([C@H](C)CO)C[C@@H]1C,9
COc1ccccc1OCCSc1n[nH]c2nc3ccccc3n12,7
C[C@@H]1CN([C@@H](C)CO)C(=O)c2cc(NC(=O)Cc3cn(C)c4ccccc34)ccc2O[C@H]1CN(C)S(=O)(=O)c1ccc(F)cc1,-6
O=C(CSc1nnc(-c2ccccc2)n1-c1ccccc1)N1c2ccccc2Sc2ccccc21,42
O=[N+]([O-])c1cccc(CN2CCN(Cc3ccco3)CC2)c1,27
c1cncc(-c2nn3c(Cn4cnc5ccccc54)nnc3s2)c1,59
Cc1ccccc1NC(=O)CSC1CC(=O)N(c2ccccc2)C1=O (configuration not stated),16
COc1ccc(NC(=O)N(C)C[C@H]2Oc3ccc(NC(=O)Cc4ccccc4)cc3CC(=O)N([C@@H](C)CO)C[C@H]2C)cc1,-1
COc1ccc(S(=O)(=O)Nc2ccc3c(c2)C(=O)N([C@H](C)CO)C[C@H](C)[C@@H](CN(C)C(=O)Nc2ccc4c(c2)OCO4)O3)cc1,2
COc1ccccc1NC(=O)Cn1cnc2scc(-c3cccc([N+](=O)[O-])c3)c2c1=O,30
O=C(c1nc2ncccn2n1)N(Cc1ccccc1)Cc1ccccc1,-10
C[C@@H]1CN([C@@H](C)CO)C(=O)Cc2cc(NC(=O)CCN3CCOCC3)ccc2O[C@@H]1CN(C)C(=O)Nc1cccc2ccccc12,3
O=C(NCc1ccccn1)C1CCCN(S(=O)(=O)c2ccc(F)cc2)C1 (configuration not stated),1
C[C@H]1CN([C@@H](C)CO)C(=O)Cc2cc(NC(=O)C3CCCCC3)ccc2O[C@H]1CN(C)C(=O)Nc1cccc2ccccc12,8
C[C@@H]1CN([C@@H](C)CO)C(=O)c2cc(NS(=O)(=O)c3ccc(F)cc3)ccc2O[C@H]1CN(C)Cc1ccc(C(F)(F)F)cc1,51
C[C@@H]1CCCCO[C@H](CN(C)S(=O)(=O)c2cccs2)[C@@H](C)CN([C@H](C)CO)C(=O)c2cc(NC(=O)Nc3ccc4c(c3)OCO4)ccc2O1,29

# Molecules shown so far that contain an aryl thioether with sulfur outside any ring (3):
SMILES,NOMO-1 viab
O=C(CSc1nc2ccccc2[nH]1)Nc1ccccc1-c1ccccc1,0
COc1ccccc1OCCSc1n[nH]c2nc3ccccc3n12,7
O=C(CSc1nnc(-c2ccccc2)n1-c1ccccc1)N1c2ccccc2Sc2ccccc21,42

# (list continues)
SMILES,NOMO-1 viab
C[C@@H]1CN([C@@H](C)CO)C(=O)c2cccc(NC(=O)Nc3ccc(F)cc3)c2O[C@@H]1CN(C)Cc1ccc(C(=O)O)cc1,1
Cc1ccc(S(=O)(=O)N(C)C[C@@H]2Oc3ccc(NS(=O)(=O)c4cn(C)cn4)cc3C(=O)N([C@H](C)CO)C[C@H]2C)cc1,6
C[C@@H]1CCCCO[C@H](CN(C)S(=O)(=O)c2ccc(F)cc2)[C@@H](C)CN([C@H](C)CO)C(=O)c2cc(NS(=O)(=O)c3ccc(Cl)cc3)ccc2O1,67
O=C(Nc1ccccc1)Nc1ccc(Cl)cc1SCc1ccccc1,u
NC(CC(=O)Nc1ccc(Cl)cc1)C(=O)O (configuration not stated),16
N#Cc1ccccc1NC(=O)c1ccccc1OCC(=O)Nc1ccc2c(c1)oc1ccccc12,-8
COc1ccc(CN(C)C[C@H]2OCCCC[C@@H](C)Oc3ccc(NC(=O)Nc4cccc5ccccc45)cc3C(=O)N([C@H](C)CO)C[C@@H]2C)cc1,73
COCCNS(=O)(=O)c1cc(OC)c(Cl)cc1OC,-15
C[C@@H]1CN([C@H](C)CO)C(=O)c2cccc(NC(=O)CCCCCC(=O)Nc3ccccc3N)c2O[C@@H]1CN(C)S(=O)(=O)c1cccs1,39
O=S(=O)(c1ccc(Br)cc1)N1CCCCCC1,41
CNC[C@H]1Oc2ccc(NC(=O)NC3CCCCC3)cc2C(=O)N([C@H](C)CO)C[C@@H]1C,25
C[C@@H]1CN([C@@H](C)CO)C(=O)c2cc(N(C)C)ccc2O[C@H]1CN(C)S(C)(=O)=O,-2
COc1ccc(NC(=O)N(C)C[C@@H]2Oc3ccc(NS(C)(=O)=O)cc3C(=O)N([C@@H](C)CO)C[C@@H]2C)cc1,22
COc1ccc(CCN=Cc2ccc3c(c2)OCO3)cc1OC,30
C[C@@H]1CN([C@@H](C)CO)C(=O)Cc2cc(NC(=O)Cc3cn(C)c4ccccc34)ccc2O[C@@H]1CN(C)Cc1ccc(C(F)(F)F)cc1,56
CCCSc1nnc(-c2cc(Br)ccc2NC(C)=O)c(=O)[nH]1,11
C[C@H](CO)N1C[C@H](C)[C@@H](CN(C)S(=O)(=O)c2ccccc2)Oc2c(NS(=O)(=O)c3ccccc3)cccc2C1=O,15
C[C@H](CO)N1C[C@H](C)[C@H](CN(C)S(=O)(=O)c2cccs2)Oc2c(NS(C)(=O)=O)cccc2C1=O,-13

# Screening results (PubChem BioAssay)
